Bioassay records from PubChem.
DUX4 txn inh = inhibitors of DUX4-driven ZSCAN4 reporter expression, primary screen, 293T cells, Gaussia and Italica luciferase | 293T-iDUX4 ZSCAN4-Gaussia luciferase reporter, 24 h; stronger effect = lower value | activity change, negative = inhibition, % (test concentration not listed) | AID 1224904, 2016 | 0.8% of 37,000 active;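 active means -10% or lower and over 25 points stronger than a control reporter; inconclusive means -10% or lower with a smaller gap; inactive means above -10%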;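 further: 0% = median of neutral control wells and -100% = median of positive control wells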
DUX4 txn inh difference = also measured in DUX4 txn inh; calls as there; Gaussia minus Italica difference, %; measured here: selective DUX4 reporter inhibition;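 worked out from the two reporters; negative = selective loss of the DUX4 reporter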
DUX4 txn inh control = second read-out of DUX4 txn inh, no call of its own (marks repeat the call); activity change, negative = inhibition, %; measured here: Italica tet-on control reporter;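 0 = neutral control and -100 = positive control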
Active calls of the source: *. This is a subset; the hit share may differ from the screen's.

How did C/C=C/c1ccc([C@H]2[C@@H](CO)N(CC3CCOCC3)C23CN(C(=O)COC)C3)cc1 do in these assays?
DUX4 txn inh: 5; DUX4 txn inh difference: 2; DUX4 txn inh control: 3.2

What do the screens show for `C[C@@H]1CCn2cc(nn2)COC[C@@H](c2ccccc2)NC1=O`?
DUX4 txn inh: -3; DUX4 txn inh difference: -1; DUX4 txn inh control: -2.0

Results for COc1ccc([C@H]2C/C=C\C[C@H](c3ccc(F)cc3)NC(=O)CCC(=O)N2)c(OC)c1 ?
DUX4 txn inh: -1; DUX4 txn inh difference: 0; DUX4 txn inh control: -1.5

Results for COc1ccc(NC(=O)N2C[C@H](O)COC[C@@H]3O[C@@H](CC(=O)N4CCOCC4)CC[C@H]32)cc1 ?
DUX4 txn inh: 3; DUX4 txn inh difference: 2; DUX4 txn inh control: 1.3

What do the screens show for `C[C@H](CO)N1C[C@H](C)[C@@H](CN(C)Cc2ccc(C(F)(F)F)cc2)Oc2ccc(NC(=O)CCCCCC(=O)Nc3ccccc3N)cc2CC1=O`?
DUX4 txn inh: -2; DUX4 txn inh difference: -9; DUX4 txn inh control: 6.4

How did CCCNC(=O)C[C@@H]1CC[C@H]2[C@H](COc3ccc(NC(=O)c4ccc(Cl)cc4)cc3C(=O)N2C)O1 do in these assays?
DUX4 txn inh: 0; DUX4 txn inh difference: -3; DUX4 txn inh control: 2.9

How did C[C@@H]1CN([C@H](C)CO)C(=O)c2cccc(NC(=O)C3CCOCC3)c2O[C@H]1CN(C)C(=O)Nc1cccc2ccccc12 do in these assays?
DUX4 txn inh: 4; DUX4 txn inh difference: 3; DUX4 txn inh control: 0.8

What do the screens show for `O=C(C[C@H]1CC[C@@H]2[C@H](COC[C@@H](O)CN2C(=O)c2cnccn2)O1)NCc1ccc(F)cc1`?
DUX4 txn inh: 8; DUX4 txn inh difference: 2; DUX4 txn inh control: 5.7

Results for COc1ccc2c3c([nH]c2c1)[C@H](CO)N(C(=O)Nc1ccc(F)cc1)CC31CN(S(C)(=O)=O)C1 ?
DUX4 txn inh: 7; DUX4 txn inh difference: -6; DUX4 txn inh control: 13

Results for C[C@@H]1CN([C@@H](C)CO)C(=O)c2cc(NS(=O)(=O)c3cn(C)cn3)ccc2O[C@H]1CN(C)Cc1ccc(-c2ccccc2)cc1 ?
DUX4 txn inh: -5; DUX4 txn inh difference: 0; DUX4 txn inh control: -4.2

How did COCC(=O)Nc1ccc2c(c1)C(=O)N(C)C[C@@H](OC)[C@@H](C)CN(Cc1cccc(F)c1)[C@@H](C)CO2 do in these assays?
DUX4 txn inh: 1; DUX4 txn inh difference: 2; DUX4 txn inh control: -1.0

How did C[C@@H]1CN([C@@H](C)CO)C(=O)CCCn2nncc2CO[C@H]1CN(C)Cc1cccc(C(F)(F)F)c1 do in these assays?
DUX4 txn inh: -4; DUX4 txn inh difference: -1; DUX4 txn inh control: -3.0

What do the screens show for `CNC[C@@H]1Oc2c(NC(=O)c3cnccn3)cccc2C(=O)N([C@H](C)CO)C[C@H]1C`?
DUX4 txn inh: -2; DUX4 txn inh difference: -2; DUX4 txn inh control: -0.2

Results for CN1C(=O)c2cc(NC(=O)Nc3ccc(Cl)cc3)ccc2OC[C@H]2O[C@@H](CC(=O)NCCN3CCCCC3)CC[C@H]21 ?
DUX4 txn inh: 1; DUX4 txn inh difference: -3; DUX4 txn inh control: 4.0

How did C[C@@H]1CN([C@H](C)CO)C(=O)c2ccccc2-c2ccccc2CO[C@@H]1CN(C)C(=O)Cc1ccccc1 do in these assays?
DUX4 txn inh: 5; DUX4 txn inh difference: 4; DUX4 txn inh control: 0.9

Results for O=C(C[C@H]1CC[C@@H]2[C@H](COC[C@@H](O)CN2Cc2ccc3c(c2)OCO3)O1)Nc1ccc(-c2ccccc2)cc1 ?
DUX4 txn inh: inconclusive

How did CN(C)C(=O)c1cccc(-c2ccc(C3[C@H]4CNC[C@@H]3N4Cc3cccnc3)cc2)c1 (stereo partly drawn) do in these assays?
DUX4 txn inh: 8; DUX4 txn inh difference: 9; DUX4 txn inh control: -1.1

Results for C[C@H]1CN([C@@H](C)CO)C(=O)CCCn2cc(nn2)CO[C@@H]1CN(C)S(=O)(=O)c1ccc(F)cc1 ?
DUX4 txn inh: -3; DUX4 txn inh difference: -1; DUX4 txn inh control: -1.9

What do the screens show for `COc1ccc(S(=O)(=O)N2CC3(CN(Cc4ccncc4)[C@@H](CO)c4[nH]c5cc(OC)ccc5c43)C2)cc1`?
DUX4 txn inh: 1; DUX4 txn inh difference: 13; DUX4 txn inh control: -12

What do the screens show for `C[C@H]1CN([C@@H](C)CO)C(=O)CCCn2nncc2CO[C@H]1CN(C)Cc1ccc(C(=O)O)cc1`?
DUX4 txn inh: 1; DUX4 txn inh difference: -1; DUX4 txn inh control: 1.8

How did COc1ccccc1CNC(=O)C[C@@H]1C[C@H]2c3cc(NC(=O)Nc4ccc(C(F)(F)F)cc4)ccc3O[C@H]2[C@H](CO)O1 do in these assays?
DUX4 txn inh: inconclusive

How did COc1ccccc1S(=O)(=O)N1CC[C@@H]2[C@H]1c1cc(-c3ccccc3)ccc1N(C)[C@H]2CO do in these assays?
DUX4 txn inh: 6; DUX4 txn inh difference: 13; DUX4 txn inh control: -7.1

What do the screens show for `C[C@@H]1CN([C@@H](C)CO)C(=O)CCCn2nncc2CO[C@@H]1CN(C)C(=O)CCC(F)(F)F`?
DUX4 txn inh: 5; DUX4 txn inh difference: 8; DUX4 txn inh control: -2.7

What do the screens show for `CCNC(=O)C[C@@H]1CC[C@H]2[C@@H](COC[C@@H](O)CN2C(=O)c2cccnc2)O1`?
DUX4 txn inh: -6; DUX4 txn inh difference: -6; DUX4 txn inh control: -0.2

An excerpt from above in order of length of the SMILES, rising.
What do the screens show for `CNC[C@@H]1Oc2c(NC(=O)c3cnccn3)cccc2C(=O)N([C@H](C)CO)C[C@H]1C`?
DUX4 txn inh: -2; DUX4 txn inh difference: -2; DUX4 txn inh control: -0.2

What do the screens show for `CCNC(=O)C[C@@H]1CC[C@H]2[C@@H](COC[C@@H](O)CN2C(=O)c2cccnc2)O1`?
DUX4 txn inh: -6; DUX4 txn inh difference: -6; DUX4 txn inh control: -0.2

What do the screens show for `C[C@H]1CN([C@@H](C)CO)C(=O)CCCn2nncc2CO[C@H]1CN(C)Cc1ccc(C(=O)O)cc1`?
DUX4 txn inh: 1; DUX4 txn inh difference: -1; DUX4 txn inh control: 1.8

How did C[C@@H]1CN([C@H](C)CO)C(=O)c2ccccc2-c2ccccc2CO[C@@H]1CN(C)C(=O)Cc1ccccc1 do in these assays?
DUX4 txn inh: 5; DUX4 txn inh difference: 4; DUX4 txn inh control: 0.9

What do the screens show for `COc1ccc(S(=O)(=O)N2CC3(CN(Cc4ccncc4)[C@@H](CO)c4[nH]c5cc(OC)ccc5c43)C2)cc1`?
DUX4 txn inh: 1; DUX4 txn inh difference: 13; DUX4 txn inh control: -12

Results for CN1C(=O)c2cc(NC(=O)Nc3ccc(Cl)cc3)ccc2OC[C@H]2O[C@@H](CC(=O)NCCN3CCCCC3)CC[C@H]21 ?
DUX4 txn inh: 1; DUX4 txn inh difference: -3; DUX4 txn inh control: 4.0

Results for O=C(C[C@H]1CC[C@@H]2[C@H](COC[C@@H](O)CN2Cc2ccc3c(c2)OCO3)O1)Nc1ccc(-c2ccccc2)cc1 ?
DUX4 txn inh: inconclusive

How did COc1ccccc1CNC(=O)C[C@@H]1C[C@H]2c3cc(NC(=O)Nc4ccc(C(F)(F)F)cc4)ccc3O[C@H]2[C@H](CO)O1 do in these assays?
DUX4 txn inh: inconclusive

Continued:
How did CN1c2ccc(-c3ccccc3F)cc2[C@@H]2[C@@H](CCN2C(=O)c2cccc(F)c2)[C@@H]1CO do in these assays?
DUX4 txn inh: 3; DUX4 txn inh difference: 4; DUX4 txn inh control: -0.9

How did C[C@H]1CN([C@@H](C)CO)C(=O)CCCn2cc(nn2)CO[C@@H]1CN(C)S(=O)(=O)c1ccccc1C#N do in these assays?
DUX4 txn inh: 3; DUX4 txn inh difference: 1; DUX4 txn inh control: 1.9

What do the screens show for `CN(C)C(=O)c1ccc(-c2ccc([C@H]3[C@@H](C#N)N(C(=O)C4CCC4)[C@H]3CO)cc2)cc1`?
DUX4 txn inh: 1; DUX4 txn inh difference: -4; DUX4 txn inh control: 4.8

How did COCC(=O)NC[C@@H]1[C@H](c2ccccc2)[C@H](CO)N1C(C)=O do in these assays?
DUX4 txn inh: -4; DUX4 txn inh difference: -2; DUX4 txn inh control: -1.8

Results for COc1ccccc1C(=O)N1C[C@H]2[C@@H](c3ccccc31)[C@@H](CO)N2C(=O)Cc1cccnc1 ?
DUX4 txn inh: 5; DUX4 txn inh difference: 7; DUX4 txn inh control: -2.1

Results for CC=Cc1ccc2n(c1=O)C[C@H]1[C@H](CO)[C@@H](C(=O)NCC3CC3)[C@@H]2N1C(=O)Nc1cc(F)ccc1F (mixture of isomers) ?
DUX4 txn inh: 4; DUX4 txn inh difference: -3; DUX4 txn inh control: 6.8

What do the screens show for `C/C=C/c1ccc([C@H]2[C@@H](CO)N[C@@H]2CN(CC(C)C)C(=O)c2ccccn2)cc1`?
DUX4 txn inh: -5; DUX4 txn inh difference: -1; DUX4 txn inh control: -3.6

How did C[C@H]1CN([C@@H](C)CO)C(=O)CCCn2cc(nn2)CO[C@@H]1CN(C)C(=O)c1ccc2ccn(C)c2c1 do in these assays?
DUX4 txn inh: 4; DUX4 txn inh difference: 6; DUX4 txn inh control: -2.2

How did COc1ccc(NC(=O)N(C)C[C@H]2OCCCC[C@H](C)Oc3ccc(NC(=O)c4ccncc4)cc3C(=O)N([C@@H](C)CO)C[C@H]2C)cc1 do in these assays?
DUX4 txn inh: -1; DUX4 txn inh difference: -3; DUX4 txn inh control: 2.7

How did Cc1ccc(S(=O)(=O)N2C[C@@H](O)COC[C@H]3O[C@@H](CC(=O)N[C@H]4CCN(Cc5ccccc5)C4)CC[C@@H]32)cc1 do in these assays?
DUX4 txn inh: 2; DUX4 txn inh difference: 7; DUX4 txn inh control: -5.1

What do the screens show for `CC(=O)N1[C@H](C(=O)N(C)C)[C@@H](CO)[C@@H]2Cn3c(ccc(-c4ccc(F)cc4)c3=O)[C@@H]21`?
DUX4 txn inh: 0; DUX4 txn inh difference: 1; DUX4 txn inh control: -0.9

Results for O=C(NCCN1CCCCC1)[C@@H]1[C@@H](CO)[C@@H]2Cn3c(cccc3=O)[C@H]1N2C(=O)C1CCCCC1 ?
DUX4 txn inh: 3; DUX4 txn inh difference: 7; DUX4 txn inh control: -4.1

What do the screens show for `C/C=C/c1ccc([C@@H]2[C@H](CO)N(C(=O)CN(C)C)C23CN(C(=O)C2CCC2)C3)cc1`?
DUX4 txn inh: 2; DUX4 txn inh difference: 0; DUX4 txn inh control: 1.9

How did COc1ccc(NC(=O)N(C)C[C@H]2Oc3ccc(N(C)C)cc3C(=O)N([C@H](C)CO)C[C@H]2C)cc1 do in these assays?
DUX4 txn inh: -1; DUX4 txn inh difference: -3; DUX4 txn inh control: 2.1

What do the screens show for `N[C@@H]1CC[C@@H](CCn2cc(-c3ccccn3)nn2)O[C@H]1CO`?
DUX4 txn inh: -2; DUX4 txn inh difference: -2; DUX4 txn inh control: -0.3

What do the screens show for `C[C@H](CO)N1C[C@H](C)[C@@H](CN(C)Cc2ccc(Cl)c(Cl)c2)Oc2ccc(NC(=O)CCCN(C)C)cc2C1=O`?
DUX4 txn inh: 2; DUX4 txn inh difference: 0; DUX4 txn inh control: 1.9

Results for COc1cccc(-c2ccc3c(c2)[C@H]2[C@H](CCN2C(=O)c2ccccn2)[C@@H](CO)N3)c1 ?
DUX4 txn inh: 8; DUX4 txn inh difference: 10; DUX4 txn inh control: -2.6

Results for C[C@@H]1CCCCO[C@@H](CN(C)C(=O)Nc2ccc(C(F)(F)F)cc2)[C@H](C)CN([C@H](C)CO)C(=O)c2cc(N(C)C)ccc2O1 ?
DUX4 txn inh: 3; DUX4 txn inh difference: 3; DUX4 txn inh control: 0.3

Results for O=C(NC1Cc2ccccc2C1)[C@H]1N[C@H]2c3cccc(=O)n3C[C@H]2[C@@H]1CO ?
DUX4 txn inh: 3; DUX4 txn inh difference: 4; DUX4 txn inh control: -1.4

How did N#C[C@@H]1[C@@H](c2ccc(-c3ccccc3F)cc2)[C@@H](CO)N1C(=O)Cc1ccccc1 do in these assays?
DUX4 txn inh: inconclusive

Results for Cc1ccc(S(=O)(=O)N(C)C[C@H]2Oc3c(NS(C)(=O)=O)cccc3C(=O)N([C@H](C)CO)C[C@@H]2C)cc1 ?
DUX4 txn inh: -2; DUX4 txn inh difference: -3; DUX4 txn inh control: 0.9

What do the screens show for `O=C1NCCOCc2cn(nn2)CC[C@@H]1Cc1ccccc1`?
DUX4 txn inh: 0; DUX4 txn inh difference: -5; DUX4 txn inh control: 5.6

What do the screens show for `COCC(=O)N1CCCCN2[C@@H](CO)[C@H](c3ccc(-c4ccc(OC)cc4)cc3)[C@@H]2C1`?
DUX4 txn inh: 8; DUX4 txn inh difference: 5; DUX4 txn inh control: 3.3

What do the screens show for `C[C@@H]1CCCCO[C@@H](CN(C)Cc2ccncc2)[C@@H](C)CN([C@H](C)CO)C(=O)c2cc(NC(=O)Cc3ccccc3)ccc2O1`?
DUX4 txn inh: 5; DUX4 txn inh difference: -1; DUX4 txn inh control: 6.2

Results for N#C[C@@H]1[C@@H](c2ccc(C#CCC3CCCC3)cc2)[C@H](CO)N1C(=O)c1ccccn1 ?
DUX4 txn inh: 0; DUX4 txn inh difference: -4; DUX4 txn inh control: 4.8

What do the screens show for `COc1ccc(-c2ccc([C@@H]3[C@@H](CO)N4C(=O)CN(Cc5ccccc5)C[C@@H]34)cc2)cc1`?
DUX4 txn inh: 1; DUX4 txn inh difference: -8; DUX4 txn inh control: 8.9
